# Source: PubChem BioAssay (National Center for Advancing Translational Sciences (NCATS))
# Vaccinia Venus: qHTS for Stage-Specific Inhibitors of Vaccinia Orthopoxvirus: Venus Reporter Primary qHTS; Vaccinia virus Venus reporter expression, fluorescence; Potency, µM (top dose mostly 36.5 µM), for inactives: top-dose activity change, negative = inhibition, hits mostly inhibitors; 0.46% of 330,000 active; active means well fitted inhibition curve with a large enough effect; inconclusive means small, poorly fitted or top-dose-only effect; inactive means no such curve, though single readings can be large or run the other way; tested in A549 cells; note: nearly all actives have a fitted effect of over 30% in size; inactives centre near -10
# Vaccinia mCherry: qHTS for Stage-Specific Inhibitors of Vaccinia Orthopoxvirus: mCherry Reporter Primary qHTS; Vaccinia virus mCherry reporter infection, fluorescence; about a quarter of the inactives have no number; Potency, µM (doses to about 36.5 µM), for the others: at the top dose activity change, negative = inhibition, usual class: inhibitors; 0.63% of 310,000 active; AID 720579, 2013; active = well fitted inhibition curve with a large enough effect; inconclusive = small, poorly fitted or top-dose-only effect; inactive = no such curve, though single readings can be large or run the other way; tested in A549 cells; note: nearly all actives have a fitted effect of over 35% in size; inactives centre near -10
# Active calls of the source: *; i = inactive; ? = inconclusive; · = not tested or not shown; & = joins results of further samples; [ ] = remark or other dose. % is set by controls: 0 for no effect and ±100 for the full control effect; potency is the fitted concentration of half-maximal effect.
SMILES,Vaccinia Venus,Vaccinia mCherry
CCC(CC)C(=O)NN(C(=O)c1ccncc1)C1CC(=O)N(c2ccccc2)C1=O (centres undefined),11%,i
CN(C)S(=O)(=O)c1cccc(NC(=O)c2cc3c(=O)n4ccccc4nc3s2)c1,-17%,-7%
CCC(=O)Nc1nonc1-c1nc2ccccc2n1CCC(C)C,-27%,-10%[1.46 µM]
C=CCNc1ncnc2c1ncn2C1OC(CO)C(O)C1O (centres undefined),?,?
Nc1ccc(C(=O)Nc2cccc(NC(=O)c3ccc(N)cc3)c2)cc1,-1%,-12%
COc1ccc(-c2onc3ccc(Br)cc23)cc1,0%,-13%
CCOC(=O)c1cnc2c(ccc3ccccc32)c1Cl,2%,i
O=C(NC1CCCCC1)C(C1CC1)N1CCc2ccccc2C1 (centres undefined),-1%,10%
CCN1CCN(c2ncc3c(n2)CCN(Cc2ccc(C)s2)C3)CC1,-13%,-10%
CS(=O)(=O)c1cccc(C(=O)Nc2ccccc2Cc2ccccc2)c1,-2%,20%
CCOC(=O)Cc1csc(NC(=S)NC(=O)c2ccc(Cl)cc2)n1,-7%,·
Cc1cccn2c(=O)cc(CSc3nnc(NC(=O)COc4ccc(F)cc4)s3)nc12,-5%,-1%
CCN(c1ccccc1)S(=O)(=O)c1ccc(F)cc1,-9%,-9%
O=C(CCn1cnc2ccccc2c1=O)Nc1cccc(Cl)c1Cl,-9%,i
CC(=O)N/C(=C/c1ccccc1)c1sc2ccccc2[n+]1CCCCI,58%[activator],18%
COc1cccc(C(=O)NCC(=O)N/N=C/c2cccc(OC(=O)c3ccc([N+](=O)[O-])cc3)c2)c1,3%,i
CCOC(=O)[C@]12Cc3cc(OC)ccc3[C@H]1N(C(C)C)C(=O)c1cc(OC)ccc12,?,?
Cc1ccc(OCC(=O)Nc2ccccc2Sc2ccc(Cl)cc2)c([N+](=O)[O-])n1,-24%,i
Cc1c(C(=O)N2CCN(C(C)C)CC2)sc2ncnc(NCc3ccco3)c12,-24%,-26%
O=C1CC(C(=O)Nc2ccc(O)c(C(=O)O)c2)C(c2ccccc2)O1 (centres undefined),-2%,0%
N#CCSc1ccccc1NC(=O)COC(=O)CCNC(=O)c1ccc([N+](=O)[O-])cc1,-3%,i
C=CCOC(=O)Cn1cnc2c(sc3nc(C)cc(C)c32)c1=O,-16%,-6%
Cc1ccc(NC(=O)c2cn(CCC#N)nc2-c2ccc3c(c2)OCCO3)c([N+](=O)[O-])c1,-20%,-29%
CSc1ccc(/C=C/c2nc3ccccc3n2S(=O)(=O)c2ccc(Br)cc2)cc1,-13%,-13%
OCc1cc2c(cn1)[nH]c1ccccc12,-8%,-14%

# Molecules above that have a nitro group on carbon, in the order listed:
SMILES,Vaccinia Venus,Vaccinia mCherry
COc1cccc(C(=O)NCC(=O)N/N=C/c2cccc(OC(=O)c3ccc([N+](=O)[O-])cc3)c2)c1,3%,i
Cc1ccc(OCC(=O)Nc2ccccc2Sc2ccc(Cl)cc2)c([N+](=O)[O-])n1,-24%,i
N#CCSc1ccccc1NC(=O)COC(=O)CCNC(=O)c1ccc([N+](=O)[O-])cc1,-3%,i
Cc1ccc(NC(=O)c2cn(CCC#N)nc2-c2ccc3c(c2)OCCO3)c([N+](=O)[O-])c1,-20%,-29%

# Continued:
SMILES,Vaccinia Venus,Vaccinia mCherry
CN1CCN(NS(=O)(=O)c2ccc(Cl)s2)CC1,-4%,i
O=C(NCc1cccnc1)c1ccc(COc2ccccc2Br)cc1,-21%,i
CCCC(=O)Nc1ccc(C(=O)NCc2ccccc2Cl)cc1,-17%,-6%[1.46 µM]
COc1ccccc1N1CCN(c2ccc(=O)n(CC(=O)NCc3ccc(OC(C)C)cc3)n2)CC1,-7%,-15%
COC(=O)c1cn(C(=O)c2ccc3c(c2)OCO3)c2ccccc12,-20%,-12%
CC(C)(C)SCCNS(=O)(=O)c1ccc(F)cc1,-8%,-9%
Cc1c(CN2CCCC(C)C2)c(O)n(CCO)c(=O)c1C#N (centres undefined),2%,i
Cn1c(=O)c2sccc2n2c(CCCC(=O)NCc3ccc(F)cc3)nnc12,-3%,-10%
Cc1ccccc1-n1c(/C=C/c2ccccc2F)nc2ccccc2c1=O,-18%,-15%
CCc1ccccc1N(CC(=O)Nc1cccnc1)S(=O)(=O)c1ccccc1,-11%,-14%
CCc1ccc(NC(=O)CC2C(=O)N(c3ccc(Cl)cc3)C(=O)N2Cc2cccs2)cc1 (centres undefined),-19%,-14%
CCCN1CCN(c2cc3c(cc2F)c(=O)c(S(=O)(=O)c2ccc(Cl)cc2)cn3C)CC1,-20%,-17%
O=c1c2c3c(sc2nc2n1CCC2)CCCCC3,-12%,-24%
Cc1ccc(Cn2cc(S(=O)(=O)c3ccc(C)cc3)c(=O)c3cc(F)c(N4CCCC4)cc32)cc1,-11%,-16%
CC(C)=CC(=O)Nc1nnc(-c2cccnc2)s1,-10%,-3%
Cc1cc(Br)ccc1NC(=O)CCS(=O)(=O)c1cccc2nonc12,3%&-14%,-15%
C[n+]1ccccc1/C=C1\Sc2ccccc2N1CCO,-6%,-13%
COc1ccc(S(=O)(=O)Nc2ccc(S(=O)(=O)Nc3nccs3)cc2)cc1,-7%,10%
Cc1c(C(=O)OC2CCCCC2)[nH]c2c1C(=O)CC(c1ccc(C(C)(C)C)cc1)C2 (centres undefined),-4%,1%
COc1cccc(C2C3=C(CC(C)(C)CC3=O)Nc3cc(OC)c(OC)cc32)c1 (centres undefined),1%,-17%
COc1nc2ccccc2c(=O)n1-c1ccc(Cl)cc1,-12%,-10%
COc1ccc(NC(=O)C=C(C)C)cc1Cl,-21%,-7%
COc1ccc(OC)c(S(=O)(=O)N2CCCC(C(=O)NC3CC3)C2)c1 (centres undefined),-5%,i
COC(=O)Cn1c(=O)c2c(n(Cc3ccccc3)c1=O)N/C(=C/c1ccc(OC)cc1)C2=O,-11%,-11%
O=c1[nH]c(=S)n(Cc2ccc(F)cc2)c(O)c1/C=N/N1CCCCC1,-9%,-13%

# 2 records picked at random from those above, as already listed:
SMILES,Vaccinia Venus,Vaccinia mCherry
Cc1cccn2c(=O)cc(CSc3nnc(NC(=O)COc4ccc(F)cc4)s3)nc12,-5%,-1%
CC(C)(C)SCCNS(=O)(=O)c1ccc(F)cc1,-8%,-9%

# Further records follow.
SMILES,Vaccinia Venus,Vaccinia mCherry
Oc1ccc2ccc3cccc[n+]3c2c1,18%,-5%
COCCn1c(C)cc(C(=O)CSc2nc(C)cc(C)c2C#N)c1C,-25%,-29%
COc1ccc(S(=O)(=O)N(C)C[C@H]2OCCCC[C@@H](C)Oc3ccc(N(C)C)cc3C(=O)N([C@H](C)CO)C[C@@H]2C)cc1,-24%,?
CCn1cc(S(=O)(=O)c2cccc(Cl)c2)c(=O)c2cc(F)c(N3CCC(C)CC3)cc21,-24%,-11%
CCCOc1ccc(C(=O)c2ccccc2C(=O)OC2CCOC2=O)cc1OCCC (centres undefined),?,?
CCOC(=O)Cc1cc(C)[nH]c1C(=O)OCC,-2%,1%
CC/C(=C(/CC)c1ccc(O)cc1)c1ccc(O)cc1,?,-7%&0%
Cc1cc(=O)oc2c(C)c(OC(C)C(=O)NCCCn3ccnc3)ccc12 (centres undefined),-9%,i
CN(C)c1ccc(CNC(=O)CCc2ccc(S(=O)(=O)N3CCCCCC3)cc2)cc1,-7%,?
CCC(=O)c1cc2c(C)cc(=O)oc2c(C)c1OC(=O)C(C)C,-9%,-11%
NC(=O)CSc1nnc(-c2ccc(O)cc2)n1Cc1ccco1,-8%,-4%
COc1ccc(OC)c(-n2c(C)nc3cc(C(=O)O)ccc32)c1,?,·
Cc1cc(C)n2nc(C(=O)Nc3ccc(S(=O)(=O)N(C)C)cc3)nc2n1,10%[7.34 µM],-2%[7.34 µM]
Cc1c(CCC(C)C)c(=O)n2c([nH]c3ccccc32)c1C#N,-13%,·
Cc1ccc(S(=O)(=O)N2CCOCC2)cc1NC(=O)CSc1ncccn1,-14%,i
Cc1cccc(NC(=O)c2cc(S(=O)(=O)N3CCc4ccccc43)cn2C)c1,-12%,i
CN(C)/C=C1/Oc2c(ccc3ccccc23)C1=O,13%,8%
CCCCOc1cccc(C(=O)N(Cc2ccc(Cl)cc2)C2CCS(=O)(=O)C2)c1 (centres undefined),-15%,-18%
COc1ccc(Br)cc1CN(C)CC(=O)NCCc1ccc(S(N)(=O)=O)cc1,-19%,-10%
COc1cccc(-c2sc3ccc(OC)cc3c2-c2ccc(OCCN3CCOCC3)cc2)c1,-15%,-17%
COc1ccc(NC2=NCC(Cc3ccc(Br)cc3)S2)cc1 (centres undefined),?,?
CCOc1ccc(NC(=O)CN2C(=O)C(c3ccccc3)=NC23CCCCCC3)cc1,-11%,-2%
O=C(NC1CCN(S(=O)(=O)c2ccc(Cl)cc2)CC1)C1CCCCC1,-1%,11%
COc1ccc(C2SCCN2S(=O)(=O)c2ccc(F)cc2)cc1OC (centres undefined),-8%,-14%
O=C(Nc1ccccc1C(=O)NCCCN1CCOCC1)c1ccccc1,-3%,-14%

# Laid out differently: entries from further up.
COc1ccc(NC(=O)C=C(C)C)cc1Cl
  Vaccinia Venus: -21%; Vaccinia mCherry: -7%
CCC(=O)Nc1nonc1-c1nc2ccccc2n1CCC(C)C
  Vaccinia Venus: -27%; Vaccinia mCherry: -10%[1.46 µM]
Cc1ccc(Cn2cc(S(=O)(=O)c3ccc(C)cc3)c(=O)c3cc(F)c(N4CCCC4)cc32)cc1
  Vaccinia Venus: -11%; Vaccinia mCherry: -16%
COc1cccc(C2C3=C(CC(C)(C)CC3=O)Nc3cc(OC)c(OC)cc32)c1 (centres undefined)
  Vaccinia Venus: 1%; Vaccinia mCherry: -17%

# The main list resumes, repeating the 4 entries before the break.
SMILES,Vaccinia Venus,Vaccinia mCherry
CCOc1ccc(NC(=O)CN2C(=O)C(c3ccccc3)=NC23CCCCCC3)cc1,-11%,-2%
O=C(NC1CCN(S(=O)(=O)c2ccc(Cl)cc2)CC1)C1CCCCC1,-1%,11%
COc1ccc(C2SCCN2S(=O)(=O)c2ccc(F)cc2)cc1OC (centres undefined),-8%,-14%
O=C(Nc1ccccc1C(=O)NCCCN1CCOCC1)c1ccccc1,-3%,-14%
CCOc1ccc(C(O)(CCC(C)C)C(CN2CCOCC2)c2ccccc2)cc1 (centres undefined),-23%,i
COc1ccccc1NC(=O)Cn1c([N+](=O)[O-])cnc1C,-6%,i
CCc1ccc(N(CC)C(=O)c2ccc3c(Cl)c4c(nc3c2)CCC4)cc1,?,-5%
COc1cccc(C(=O)N2CCN(C(=O)Cc3ccccc3)CC2)c1,-15%,i
CCCOc1c(Br)cc(C2C3=C(CCCC3=O)N(C)C3=C2C(=O)CCC3)cc1OC,-7%,-1%
CCOC(=O)Cn1c(=O)oc2cc(S(=O)(=O)N3CCN(c4ccccc4F)CC3)ccc21,-1%,-2%
Cc1ccc(-n2c(C)cc(C3N=C(N)Nc4nc5ccccc5n43)c2C)c(C)c1 (centres undefined),-28%,-25%
O=[N+]([O-])c1cc(/C=N/N2CCN(C3c4ccccc4-c4ccccc43)CC2)ccc1Cl,-8%,-11%
Cc1nc(C)c(-c2ccn(C(=O)NC(C)C)n2)s1,-9%,-22%
COc1ccc(C(=O)NCCc2ccccc2)cc1[N+](=O)[O-],1%,i
CCOC(=O)CSc1nc(NCc2ccco2)c2ccccc2n1,-4%,i
COc1ccc(S(=O)(=O)NCCC(=O)N2CCCC2)cc1N(C)S(C)(=O)=O,-1%,7%
S=c1[nH]nc(-c2ccco2)n1C1CCCCC1,-11%,-13%
COc1ccc(Cn2c(SCc3ccc(C(=O)NC4CCCC4)cc3)nc3cccnc32)cc1,-7%,-17%
O=C(Nc1ccc(S(=O)(=O)N2CCOCC2)cc1)C1CCN(S(=O)(=O)c2ccc(F)cc2)CC1,-19%,-22%
O=C(CN1CCC(NC(=O)c2ccco2)CC1)Nc1ccccc1C(F)(F)F,-2%,1%
CCN(CC(=O)Nc1ccc(NC(C)=O)cc1)C(=O)COc1ccccc1-c1ccccc1,-9%,i

# Outcome played no part in choosing rows (roughly 0.88% active in at least one column).
